# From PubChem BioAssay
# VACV mCherry inh: vaccinia inhibition (mCherry reporter); Vaccinia virus mCherry reporter infection, fluorescence; about a quarter of the inactives have no number; Potency, µM (top dose mostly 36.5 µM), without a hit: top-dose activity change, negative = inhibition, hits mostly inhibitors; 0.63% of 310,000 active; AID 720579; active = well fitted inhibition curve with a large enough effect; inconclusive = small, poorly fitted or top-dose-only effect; inactive = no such curve, though single readings can be large or run the other way; tested in A549 cells; further: nearly all actives have a fitted effect of over 35% in size; inactives centre near -10
# VACV Venus inh: vaccinia inhibition (Venus reporter); Potency, µM (titrated, usually from 36.5 µM), for inactives: top-dose activity change, negative = inhibition, actives largely listed as inhibitors; AID 720580; Vaccinia virus Venus reporter expression, fluorescence; 0.46% of 330,000 active; active means well fitted inhibition curve with a large enough effect; inconclusive means small, poorly fitted or top-dose-only effect; inactive means no such curve, though single readings can be large or run the other way; tested in A549 cells; further: nearly all actives have a fitted effect of over 30% in size; inactives centre near -10
# Numbers without * were called inactive; i = inactive; u = inconclusive; x = not tested or not shown; & = joins results of further samples; [ ] = dose if it differs, or a comment. On the % scale 0 is the no-effect control and ±100 the full control effect; potency means the concentration at half of the fitted maximal effect.
SMILES,VACV mCherry inh,VACV Venus inh
Cc1ccc(C(=O)O)cc1NC(=O)CCc1c(C)noc1C,-14%,-7%
O=C(O)CCc1ccc(-c2cccs2)n1CC(=O)Nc1ccccc1C(F)(F)F,-4%&-9%,-8%&2%
COc1ccc(OC)c(Nc2nc(N)c([N+](=O)[O-])c(NCc3ccccc3)n2)c1,u,5%
Cc1cc(N2CCN(c3ccccc3)CC2)n2nnnc2n1,-17%,-7%
Cc1ccc(S(=O)(=O)NCCSc2nncn2C)cc1,i,3%
Clc1ccc(C2=Nc3cc(Cl)ccc3OC2)cc1,-6%,2%
C=C(C)CN(CC)C(=O)CC1C(=O)NCCN1C (configuration not stated),-4%,-8%
Cc1ccccc1-c1nc2cc(NC(=O)C3CC3)ccc2o1,-15%,0%
O=C(COc1ccccc1)Nc1c(Cl)ccc2nsnc12,-3%&-13%,2%&1%
CCOC(=O)CN1NC2(CCCCCCC2)NC1=S,i,-9%
CCN1C(=O)N(C)C(N(O)C(=O)NC)C1(C)C (configuration not stated),x,-8%
NC(=S)N/N=C1\CC(n2nnnc2-c2ccccc2Cl)C2COC1O2 (configuration not stated),-18%,-5%

# Full records from above:
# Record of Cc1ccc(C(=O)O)cc1NC(=O)CCc1c(C)noc1C : VACV mCherry inh: -14%; VACV Venus inh: -7%
# Record of Cc1ccccc1-c1nc2cc(NC(=O)C3CC3)ccc2o1 : VACV mCherry inh: -15%; VACV Venus inh: 0%
# Record of Clc1ccc(C2=Nc3cc(Cl)ccc3OC2)cc1 : VACV mCherry inh: -6%; VACV Venus inh: 2%

# The list goes on:
SMILES,VACV mCherry inh,VACV Venus inh
O=C(NCCc1csc(-c2cccc(F)c2)n1)c1ccc(Br)o1,-17%,-4%
Cc1ccc(NC(=O)CCn2cccn2)c(C)c1,-9%,-7%
O=CN1CCN(C(=O)c2ccc(Br)o2)CC1,i,1%
O=C(CSc1nccn(-c2cccc(F)c2)c1=O)Nc1ccc(Cl)cc1F,-9%,-3%
CCN(CC)C(=O)CSc1nnc2c3ccccc3n(C)c2n1,1%,-5%
COC(=O)c1ccc2c(=O)n(CCCCCC(=O)N3CCN(c4cc(Cl)ccc4C)CC3)c(=O)[nH]c2c1,-11%,-9%
CSc1ccccc1NC(=O)c1cc(-c2ccc3c(c2)OCO3)on1,-10%,-4%
CC1=C(C(=O)N2CCCCCC2)CC(CC(=O)NCc2cccs2)C(=O)N1CCC1=CCCCC1 (configuration not stated),-1%,-10%
CCCCC(CC)C(=O)Nc1ccc(Nc2ccccc2)cc1 (configuration not stated),-9%,3%
CCCCNC(=S)Nc1ccc(-c2nc3ccc(C)cc3s2)cc1,i,-16%
CC1Cc2nc(SCC(=O)Nc3ccc(F)cc3F)n(C)c(=O)c2S1 (configuration not stated),-1%,-22%
COc1ccc(Cl)cc1S(=O)(=O)Oc1ccc(NC(C)=O)cc1,x,-19%
C=CCNc1nc(NCCCN2CCCC2=O)c2sc(-c3ccccc3)cc2n1,u,u
COC(=O)c1nn(-c2cccc(C)c2)c2nnc(Cc3ccccc3)c(=O)n12,i,4%
CCc1ccccc1NC(=O)Cn1c(=O)n(CC(=O)NCCc2ccccc2)c(=O)c2ccccc21,-8%,-3%
CCOC(=O)C1CCCN(C(=O)c2ccc(S(=O)(=O)NCc3ccco3)cc2)C1 (configuration not stated),i,-11%
CC1=C/C(=C(\c2ccc(O)c(C)c2)c2ccccc2S(=O)(=O)O)C=CC1=O,-18%,10%
CCCNC(=O)COc1nc2ccccc2nc1N1CCOCC1,-13%,-2%
CCCc1ccc(OC(=O)CSc2nnc(-c3cccs3)o2)cc1,-10%,-11%
CSc1ncccc1C(=O)OCC(=O)c1ccc(S(=O)(=O)N2CCCCC2)cc1,i,-10%
COCCCNC(=S)Nc1cccc2ncccc12,-4%,-25%
O=C1NC(c2ccccc2)=C(c2nc3ccccc3s2)C(c2ccc(O)cc2)N1 (configuration not stated),u,u
O=c1[nH]c2ccc(S(=O)(=O)N3CCCCC3)cc2[nH]1,-6%,0%
O=S(=O)(c1ccc2c(c1)OCCO2)N1CCC(c2nc3ccccc3s2)CC1,u,-26%
O=C(c1ccc([N+](=O)[O-])cc1[N+](=O)[O-])n1cnc2ccccc21,u,-28%
CN(C)c1ccc(NC(=O)c2ccc(COc3cccc(Cl)c3)o2)cc1,x,-27%
Cc1ccc2[nH]c3c(N4CCN(Cc5ccccc5)CC4)ncnc3c2c1,u,u
CC(C)OC(=O)c1c(-c2ccc(C(C)C)cc2)csc1NC(=O)C1CCCO1 (configuration not stated),-11%,-6%
CCOCCCN1CC(=O)N2[C@@H](Cc3c([nH]c4ccccc34)C2(C)C)C1=O,u,-28%
O=C(NC1CCCC1)C(c1ccc(N2CCOCC2)cc1)N(Cc1ccco1)C(=O)c1ccco1 (configuration not stated),x,0%
COc1cc(OC)c2cc(C(=O)N[C@@H](Cc3ccccc3)C(=O)O)n(C)c2c1,i,-7%
Cc1cccc(N2C(=O)NC(=O)/C(=C/c3ccc([N+](=O)[O-])o3)C2=O)c1,25%,91%[activator]
COc1ccccc1NC(=O)N(C)C[C@H]1Oc2ncc(Br)cc2C(=O)N([C@H](C)CO)C[C@H]1C,-24%,-11%
Cc1ccc(S(=O)(=O)N(Cc2c(F)cccc2Cl)C(=O)N2CCN(C)CC2)cc1,-12%,-8%
CCCCN(C(=O)c1cc2c(s1)CCC2)c1c(N)n(CCC)c(=O)[nH]c1=O,-12%,-6%
CNC(=S)N(CCc1c(C)[nH]c2ccc(OC)cc12)Cc1cc(OC)c(OC)c(OC)c1,u,-25%
CN(CC(=O)Nc1ccc(N2CCOCC2)cc1)C(=O)CSc1ccc(F)cc1,0%,-14%
O=c1c2ccccc2c(C=NCCc2ccccc2)c(O)n1Cc1ccccc1,x,u
Brc1cc(Br)c2nc(-c3ccc(N4CCOCC4)cc3)ccc2c1,-20%,-4%
CC(=NNC(=O)c1cc(C)nc2ccccc12)c1ccc(N2CCOCC2)cc1,-17%,-1%
Cc1c(O)ccc(/C=N/Nc2nc(-c3cccnc3)nc3ccccc23)c1O,-29%,-17%
Cc1ccccc1CN1[C@@H](CC2CCCCC2)COCCS1(=O)=O,u,u
CC/C(=N\NC(=O)COc1ccc(Br)cc1)c1ccc(OC)c(OC)c1,-3%,-7%
C[C@H]1CN([C@@H](C)CO)C(=O)c2cc(Br)cnc2O[C@H]1CN(C)C(=O)c1cccnc1,-2%,4%
CCC1CC(=O)CCN1S(=O)(=O)c1ccc(C)cc1 (configuration not stated),-17%,-20%
Cc1ccc(Cl)cc1N1CCN(C(=O)C2CCN(S(=O)(=O)Cc3ccccc3)CC2)CC1,-11%,1%
Cn1c(=O)c2sccc2n2c(CCCC(=O)Nc3ccc(Oc4ccc(Cl)cc4)cc3)nnc12,u,-29%
Cc1ccc(-c2cc(C(F)(F)F)c(C#N)c(=O)[nH]2)cc1,-4%,-1%
O=C(NCC(c1ccco1)N1CCN(c2ccccc2)CC1)OCc1ccccc1 (configuration not stated),-10%,-3%
Cc1sc2nc(CSC(C)C(=O)Nc3cc(S(C)(=O)=O)ccc3Cl)[nH]c(=O)c2c1C (configuration not stated),-3%,-4%
COc1ccc(C(=O)Nc2ccccc2C(=O)Nc2ccccc2)cc1,-7%,-10%
CCN1CCN(C(c2ccccc2OC)c2nnnn2C2CCCCC2)CC1 (configuration not stated),x,-28%
Cc1ccc(Nc2nc(N)nc(CSc3nc(C)cc(C)n3)n2)cc1,-7%,-16%
COc1ccc(-c2nc(N)nc(N)n2)c(O)c1,-23%,u
O=C(NCP(=O)(Oc1ccccc1)Oc1ccccc1)OCc1ccccc1,13%,6%
CC(=O)c1cccc(NC(=O)N2CCC(NC(=O)C3CCCCC3)CC2)c1,0%,-4%
COc1ccc(N=C2C(=O)Nc3c(C)cccc32)cc1,x,-15%
CCOC(=O)c1cc(-c2ccccc2)n(CC(=O)NCc2ccccc2OC)c1C,-13%,-12%
COc1ccc(C2(O)C(=O)Nc3ccc(C)cc32)cc1 (configuration not stated),i,-9%
Cc1ccc(NS(=O)(=O)c2ccc(C(=O)NCCCN3CCCC3=O)cc2)cc1,-16%,-14%

# Next entries follow.
SMILES,VACV mCherry inh,VACV Venus inh
CCOc1ccccc1Nc1nc(-c2cccnc2)cs1,-14%,-27%
CC(O)(c1ccccc1)c1nc(-c2cccc(F)c2)cs1 (configuration not stated),-12%,-15%
O=C(NCc1ccccc1Cl)c1cc2c(s1)CS(=O)(=O)C2,-8%[7.34 µM],-5%[7.34 µM]
Cn1ncc2c(Nc3ccc([N+](=O)[O-])cc3)nc(Cl)nc21,1%,-7%
O=C(Cc1ccccc1)Oc1ccc(N2C(=O)CCC2=O)cc1,-15%,-11%
Cc1noc(C)c1S(=O)(=O)N(C)C[C@H]1Oc2ccc(NC(=O)NC(C)C)cc2C(=O)N([C@H](C)CO)C[C@@H]1C,i,-17%
COc1ccc(C(=O)N2CCCC(Nc3ccc(F)cc3)C2)cc1F (configuration not stated),i,-8%
CC(C)Oc1ccc(CNC(=O)c2ccc3c(c2)N(Cc2ccc(F)cc2)CCS3)cc1,-2%,-13%
CCOC(=O)C1=C(CN2CCC(C)CC2)NC(=O)NC1c1ccc(Cl)cc1 (configuration not stated),-29%,-24%
O=C(NC1CCCCC1)C(c1ccncc1)N(C(=O)c1csnn1)c1ccccc1F (configuration not stated),u,2%
COc1ccc(F)cc1Cn1nc(C(=O)O)c2ccccc2c1=O,-18%,-7%
Cc1ccc(S(=O)(=O)CC(=O)c2ccc(C(C)(C)C)cc2)cc1,x,-17%
COc1ccc2c(Sc3ccccc3)c(C(=O)NCCc3ccc(Cl)cc3)[nH]c2c1,-14%,-16%
C(=C\c1ccc2ccccc2n1)/c1cccnc1,u,-28%
CCCn1c2ccccc2c2nnc(SCC(=O)Nc3nnc(CC(=O)OCC)s3)nc21,-13%,u
O=C(Nc1ccc(Cc2ccncc2)cc1)c1cccc([N+](=O)[O-])c1,-7%,-15%
CC1CCN(C(=O)CSc2nc3ccccc3nc2Cc2ccccc2)CC1,-16%,-16%
COc1ccccc1NC(=S)NCCc1c[nH]c2ccccc12,-25%,-15%
CCOc1ccc(NS(=O)(=O)c2ccc(NC(=O)c3cccnc3)c(OC)c2)cc1,i,-14%
COc1ccc(OC)c(CNC(=O)Cn2nc(C)c3nn(-c4ccc(Cl)cc4)c(C)c3c2=O)c1,-18%,-6%
CCOC(=O)N1c2ccccc2Sc2ccccc21,i,-26%
CC(C)(C)c1ccc(OCc2nnc(-c3ccccc3)o2)cc1,-2%,5%
Cc1ccc2c(CSc3nncn3C)cc(=O)oc2c1C,-1%,-9%
O=C(Cn1nc(-c2cccc(Cl)c2)ccc1=O)Nc1cccnc1,-4%,-8%

# Reprinted from the part before: 4 compounds; new compounds follow.
SMILES,VACV mCherry inh,VACV Venus inh
CCOC(=O)N1c2ccccc2Sc2ccccc21,i,-26%
CC(C)(C)c1ccc(OCc2nnc(-c3ccccc3)o2)cc1,-2%,5%
Cc1ccc2c(CSc3nncn3C)cc(=O)oc2c1C,-1%,-9%
O=C(Cn1nc(-c2cccc(Cl)c2)ccc1=O)Nc1cccnc1,-4%,-8%
CCN(C(=O)/C=C/c1ccccc1)C1CCCCC1,-14%,-15%
CCOC(=O)Cc1csc(NC(=O)COc2ccc(C)c(C)c2)n1,-2%,-13%
CN(CC1CCCN(CCc2ccccc2F)C1)C(=O)c1ccoc1 (configuration not stated),-28%,-27%
CCN(CC)S(=O)(=O)c1ccc(N2CCOCC2)c(NS(=O)(=O)c2ccc(Cl)s2)c1,-2%,-4%
Cc1cc(SCC(=O)N(C)CC(=O)Nc2ccc(F)cc2)nc2ccccc12,-8%,-24%
O=C(CN(c1ccc2c(c1)OCCO2)S(=O)(=O)c1ccccc1)NCC1CCCO1 (configuration not stated),-19%,-9%
Cc1cccc(C)c1OCC(=O)OCC(=O)Nc1ccc(Cl)cn1,i,-14%
COC(=O)c1sc(S(=O)(=O)NC(C)C(=O)O)c(C(=O)OC)c1C (configuration not stated),4%,-3%
CCn1cc(C(=O)NCCCOC(C)C)c(=O)c2cc(S(=O)(=O)N3CCc4ccccc4C3)ccc21,-6%,-22%
O=C(CSc1nc2ncccc2[nH]1)NC1CCCCC1,-6%,-7%
COc1cccc(CNC(=O)CSc2nc3ccccc3nc2Cc2ccc(C)cc2)c1OC,-15%,-13%
C#CCOCCOCCOCCNc1nc(N2CCN(C(=O)[C@H](CCCN=C(N)N)n3cc(C(N)[C@@H](C)CC)nn3)CC2)nc(N2CCN(C(=O)[C@H](CCC(=O)O)n3cc([C@@H](N)CC(N)=O)nn3)CC2)n1 (some centres not stated),i,0%
Cc1ccc(NC(=O)N2CCC(CN3CCCCC3)CC2)c(Cl)c1,-1%,1%
NC(=O)c1c(NC(=O)c2ccc([N+](=O)[O-])o2)sc2c1CCCC2,u,-23%
COC(=O)c1ccc(Cn2cnc3c(cnn3-c3ccc(C)c(C)c3)c2=O)o1,-13%,-8%
Cc1c(C(=O)NCc2ccccn2)sc(=O)n1Cc1ccc(-c2ccccc2)cc1,1%,-5%

# Some of these compounds in order of molecular weight, low to high.
SMILES,VACV mCherry inh,VACV Venus inh
Cc1c(C(=O)NCc2ccccn2)sc(=O)n1Cc1ccc(-c2ccccc2)cc1,1%,-5%
COc1cccc(CNC(=O)CSc2nc3ccccc3nc2Cc2ccc(C)cc2)c1OC,-15%,-13%
C#CCOCCOCCOCCNc1nc(N2CCN(C(=O)[C@H](CCCN=C(N)N)n3cc(C(N)[C@@H](C)CC)nn3)CC2)nc(N2CCN(C(=O)[C@H](CCC(=O)O)n3cc([C@@H](N)CC(N)=O)nn3)CC2)n1 (some centres not stated),i,0%

# Random draw from the library; 0.82% or so of the library scored in one or more.
